HIV TAR-Tat = HIV-1 TAR-Tat binding disruption; AID 1259389; 100,000 compounds, 0.6% hits; z-score (concentration not given with the values); HIV-1 TAR RNA, Tat peptide displacement FRET; hits give high values;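 further: score is relative to mean and SD of negative controls; some compounds called inactive have numbers as strong as hits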
CDC25B CDK2 inh = human CDC25B-CDK2/CyclinA binding inhibition; P30305+P24941; AID 1259370; z-score (concentration not given with the values); 94,000 compounds, 0.72% hits; HTRF CDC25B-CDK2/CyclinA binding, anti-His/anti-Flag; hits give high values;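 further: score is relative to mean and SD of negative controls; strong numbers were not always called active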
* marks the source's active call; other numbers are inactive results; / = no result given.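 How the source made its calls: active means z-score from 3 up in half or more of its runs; inactive means the rest.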

entry	structure	HIV TAR-Tat	CDC25B CDK2 inh
1	Cn1c(=O)oc2cc(S(=O)(=O)N3CCCC(C(=O)N4CCCC4)C3)ccc21 (stereo not drawn)	0.97	-0.73
2	COc1cc(/C=C2/SC(=S)NC2=O)ccc1OS(=O)(=O)c1ccccc1[N+](=O)[O-]	/	-1.8
3	CCCCc1nn2c(=O)cc(COC(=O)COc3ccccc3C)nc2s1	-0.43	/
4	CC(C)NC(=O)NCCc1csc2c1CCCC2	-1.7	/
5	CCN1/C(=C/c2ccc3cc(C)ccc3[n+]2CC)Sc2cc(NC(C)=O)ccc21	-10	-2.3
6	CCN(CC)c1ccc2nnc(CCC(=O)Nc3cccnc3)n2n1	0.35	/
7	COc1ccc(S(=O)(=O)Nc2ccc(Cl)cn2)c(C)c1C	-0.08	-1.1
8	CCOc1ccc(OCC)c(NS(=O)(=O)c2cc(-c3cnc(C)o3)ccc2OC)c1	1.6	/
9	Cc1cc(C(=O)NCCNS(=O)(=O)c2ccc(Cl)cc2)c(C)o1	/	-1.1
10	Cc1cc(C(=O)NCc2cccn2C)nn1C	/	-0.16
11	O=C(CN1CCCCC1)n1c2c(c3ccccc31)CCCC2	-0.18	-2.2
12	CC1CCN(C(=O)CCSc2nc(-c3ccco3)cc(C(F)(F)F)n2)CC1	1.7	-0.67

Sorted by count of non-hydrogen atoms (largest number first): part of the list above.
entry	structure	HIV TAR-Tat	CDC25B CDK2 inh
12	CC1CCN(C(=O)CCSc2nc(-c3ccco3)cc(C(F)(F)F)n2)CC1	1.7	-0.67
6	CCN(CC)c1ccc2nnc(CCC(=O)Nc3cccnc3)n2n1	0.35	/
11	O=C(CN1CCCCC1)n1c2c(c3ccccc31)CCCC2	-0.18	-2.2

Following part
entry	structure	HIV TAR-Tat	CDC25B CDK2 inh
13	Cn1c2ccccc2c2nnc(SCCCC(=O)c3ccc4c(c3)OCCO4)nc21	3	-0.29
14	CCC(C(=O)N1CCN(c2ccccn2)CC1)n1nc(C)n2c(cc3occc32)c1=O (stereo not drawn)	2.2	-2
15	CCOC(=O)N1CCN(C(=O)C(CC)n2nc(C)c3sc4ccccc4c3c2=O)CC1 (stereo not drawn)	2.4	-2.4
16	Cc1cc(NC(=O)C(Sc2nnc(C)s2)c2ccccc2)no1 (stereo not drawn)	0.06	-0.32
17	COC(=O)c1cc(-c2c[nH]c3ccccc23)n[nH]1	0.96	-0.19
18	O=c1[nH]c(C23CC4CC(CC(C4)C2)C3)cs1	/	-0.85
19	O=C(Nc1ccccc1)O/N=C/c1ccc(F)c(Cl)c1	/	-0.52
20	COc1ccc(OC)c(-c2csc(-c3ccccn3)n2)c1	-0.22	-3.1
21	O=C1CCN(c2cc(Nc3ccc(C(=O)O)cc3)c3c4c(onc24)-c2ccccc2C3=O)CC1	27*	14
22	CC(C)(C)c1csc(-c2ccc(C=N/C(C#N)=C(\N)C#N)cc2)n1	/	-2.3
23	COc1cc(/C=c2\sc3nc4ccccc4n3c2=O)cc(Cl)c1OCc1ccccc1F	/	-2.7
24	Clc1ccc(-c2nn3c(Cn4cnc5ccccc54)nnc3s2)cc1	1.2	-1.2
25	CC(C)CC(=O)Nc1nc(-c2ccc(Br)cc2)ns1	2.2	-1.5
26	Cc1nc(NC(=O)Cn2c(=O)oc3cc(Cl)ccc32)sc1C	/	-2.4
27	O=C(NC1CCCC1)N1CCC(N2CCN(Cc3ccccn3)C(=O)C2=O)CC1	0.47	/
28	O=C(c1cc2c(s1)-c1ccccc1OC2)N1CCOCC1	-0.56	-0.03
29	CC1CC(=O)Nc2cc(S(=O)(=O)N3CCC(CN4CCc5ccccc5C4)CC3)ccc2S1 (stereo not drawn)	0.14	/
30	CCOC(=O)N1CCN(c2c(N3CCN(c4ccc(C)cc4)C(C)C3)c(=O)c2=O)CC1 (stereo not drawn)	-0.35	-2.9
31	O=C(O)c1ccccc1Sc1cc(C(=O)O)c(Sc2ccccc2C(=O)O)cc1C(=O)O	/	15*
32	CCOC(=O)CC(=O)CSc1nc(-c2cccs2)cc(-c2ccc(Cl)cc2)c1C#N	-2.2	-9.1
33	O=C(Cn1nc2c3sccc3ncn2c1=O)Nc1ccccc1Cl	0.68	/
34	Nc1nc(-c2cccs2)cs1	0.51	-2.6
35	Cc1ccc(N2C(=O)CC(N3CCN(c4ncccn4)CC3)C2=O)cc1Cl (stereo not drawn)	0.53	0.14
36	CSc1ccc(CCNC(=O)C2CCCN2c2nnc(N3CCCC3=O)s2)cc1 (stereo not drawn)	2	-1.6
37	c1ccc(-c2nc3nonc3c3nc4ccccc4n23)cc1	0.05	-3.4
38	Cc1n[nH]c(C)c1Cc1cc(C(=O)NC2CCCCC2)sc1N1CCOCC1	1.4	-1.3
39	COc1ccc2c(c1)C=C(C(=O)NC1CCCCC1)CO2	0.41	/
40	O=C1CCCc2cc(S(=O)(=O)NCCCN3CCCC3)ccc2N1	0.94	/
41	N#Cc1cccc(C#N)c1Oc1ccc(NC(=O)c2ccc(Cl)cc2)cc1	/	-2.9
42	COc1ccc2ncc(S(=O)(=O)c3ccc(C)c(C)c3)c(N3CCCC3)c2c1	-0.09	4.2
43	CCn1c2ccccc2c2cc(CN3CCN(S(=O)(=O)c4ccccc4)CC3)ccc21	2.4	-3.3
44	O=C(O)c1nccnc1C(=O)Nc1cccc2c1CCCC2	/	-1.1
45	Cn1c(SCC(=O)N2c3ccccc3Sc3ccccc32)nnc1-c1ccncc1	/	-1.7
46	CCCc1cc(=O)n2nc(N(C)CC(=O)NCCC3=CCCCC3)sc2n1	1.8	0.13
47	CCOCCCNC(=O)NC(C)c1c(-n2cccc2)sc2c1CCN(C)C2 (stereo not drawn)	0.98	/
48	COc1ccc(Cl)cc1NC(=O)CSc1nnc(Cc2cccn2C)n1-c1ccc(F)cc1	/	-0.51

Whole records from above. Values in the order: HIV TAR-Tat	CDC25B CDK2 inh
Shown for Cc1n[nH]c(C)c1Cc1cc(C(=O)NC2CCCCC2)sc1N1CCOCC1 = 1.4	-1.3
Shown for COc1ccc(Cl)cc1NC(=O)CSc1nnc(Cc2cccn2C)n1-c1ccc(F)cc1 = /	-0.51

New compounds follow:
entry	structure	HIV TAR-Tat	CDC25B CDK2 inh
49	COC(=O)c1c(N)sc2c1CCN(C)C2	-1.4	-0.35
50	Cc1nnc(Oc2cccc(Cl)c2)c2ccccc12	2.5	/
51	Cn1nc(C(=O)NCCC2=CCCCC2)c2c1-c1ccccc1SC2	0.46	-0.64
52	COC(=O)c1cc(OC)c(OC)cc1NC(=O)c1nccnc1C(=O)O	/	-0.89
53	CN(C)/C=C/C(=O)C(c1ccccc1)c1ccccc1	/	-3.3
54	OC[C@H]1O[C@@H](O[C@@H]2[C@@H](CO)O[C@](O)(CO)[C@H]2O)[C@H](O)[C@@H](O)[C@H]1O	0.33	/
55	CSC(SC)=C(C#N)c1ccccc1	/	0.8
56	O=S(=O)(NCc1ccc(-c2nn3cnnc3s2)cc1)c1ccccc1	2.3	/
57	Cc1cc(N2CCCC2)n2nc(C)nc2n1	1	-1.8
58	COc1ccc(OCc2nnc(SCc3cc(=O)c4cc(Cl)ccc4[nH]3)n2C)cc1	0.61	/
59	COC(=O)c1c(C)oc2cc(Br)c(OCC(=O)c3ccc(OC)cc3)cc12	1.9	-2.9
60	CCN1CCc2c(sc(-n3cccc3)c2CNC(=O)NCCCOC)C1	-7.5	/
61	O=C(NCc1ccco1)C(=O)NCC(c1ccco1)S(=O)(=O)c1cccs1 (stereo not drawn)	1.2	/
62	O=S(=O)(NCCS(=O)(=O)N1CCN(c2ccccc2)CC1)c1ccccc1	-0.08	/
63	Cc1cc(NC(=O)c2noc3c2CCCCC3)n(-c2ccccc2)n1	-0.37	-0.02
64	O=C1c2oc3ccc(Br)cc3c(=O)c2C(c2cccc(O)c2)N1Cc1ccccc1 (stereo not drawn)	1.2	1.7
65	COC(=O)c1c(C)[nH]c(C(=O)CSc2nnc3ccccn23)c1C	/	-0.17
66	COc1ccc(NC(c2ccccn2)c2c(C)[nH]c3ccccc23)c(OC)c1 (stereo not drawn)	/	-2
67	COc1cccc(N2CC(=O)Nc3c(oc4nc(-c5ccccc5)cc(C)c34)C2=O)c1	/	-1.6
68	O=C(O)CSc1nc2ncccc2n2cccc12	-0.05	1.6
69	Cc1cc(Cl)ccc1OCC(=O)Oc1nn(C)c(=O)c(Cl)c1Cl	/	-0.22
70	CCOC(=O)c1sc(NC(=O)C2CCCO2)c(C(=O)OCC)c1C (stereo not drawn)	2.4	1.1
71	O=C(c1ccccc1)c1cccc2c1NCC2	/	0.17
72	CN(C)CCNc1ncnc2c1c(-c1ccccc1)cn2-c1ccccc1Cl	-0.33	-1.6
73	CN(C)S(=O)(=O)N1CCC(N2CCN(Cc3ccc(F)cc3)C(=O)C2=O)CC1	1.1	/
74	COC(=O)c1cnc(Sc2ccc(Cl)cc2)nc1C(F)(F)F	/	-0.8
75	Cc1ccc2oc(-c3ccc(C)c(N=C/C=C/c4ccc(Cl)cc4Cl)c3)nc2c1	/	-1.5
76	Cn1c(-c2ncc(C(F)(F)F)cc2Cl)n[nH]c1=S	/	-1
77	COc1cc(OC)cc(-c2nc3ccc(Br)cc3c(=O)o2)c1	-0.88	-0.55
78	O=C(CN1CCCCC1)N1CCCc2c1c(=O)oc1ccc(O)cc21	/	-0.14
79	CCN1C(=O)c2ccccc2Sc2ccc(NC(=O)N3CCN(C)CC3)cc21	-0.25	-0.12
80	COc1ccc2c(c1)c(NC(C)=O)c1n2CC(C)(C(=O)NC2CCCC2)N(C2CCCC2)C1=O (stereo not drawn)	2.1	/
81	NC(=O)COc1ccc(C2c3c(oc4ccccc4c3=O)C(=O)N2Cc2ccc3c(c2)OCO3)cc1 (stereo not drawn)	2.6	-1.2
82	CCCCSc1nc2c(c(=O)[nH]1)C(c1ccncc1)C(C(=O)OC(C)C)=C(C)N2 (stereo not drawn)	1.2	-0.94
83	Cc1nc2c(-c3ccccc3)c(C)[nH]n2c(=O)c1Cc1ccccc1	0.89	-1.2
84	C(/C=C/c1ccccc1)=C\c1ccccc1	/	0.19
85	Clc1ccc(-c2cn3c4ccccc4nc3n2CCCN2CCCC2)cc1	-0.25	-0.54
86	O=S1OCC(COc2ccccc2)O1 (stereo not drawn)	/	0.85
87	COc1ccc2cc3c(nc2c1)N(S(=O)(=O)c1cc(C)ccc1OC)CC3	-0.52	-0.15
88	COc1cc(/C=N/N=C2/NC(=O)CCS2)cc(OC)c1	/	-1.4
89	Cn1nc(C(=O)Nc2ccc(Br)cc2F)c2c1-c1ccsc1CC2	0.07	/
90	CCCSCCCNC(=O)C(CC)n1nc(C)n2c(cc3occc32)c1=O (stereo not drawn)	1.9	-0.45
91	CC(=O)Nc1ccc(S(=O)(=O)N2CCN(CCOc3ccccc3)CC2)cc1	/	-1
92	Cc1csc2nc(CSCc3ccccc3)cc(=O)n12	-1.1	-1.7
93	CC(=O)Nc1nc2ccc(NC(=O)c3cc(-c4ccncc4)nc4ccccc34)cc2s1	0.47	/
94	COCCNC(=O)c1sc2ncccc2c1-n1cccc1	0.64	/
95	Clc1nc(N2CCCCCC2)c2c(ncn2Cc2ccccc2)n1	/	-1.4
96	CN(C)c1ccc(C2CC(=O)c3cnc(NCCN4CCOCC4)nc3C2)cc1 (stereo not drawn)	0.26	3.6
97	CCOC(=O)COc1ccc2c(c1)c(C(C)=O)c(C)n2-c1ccc(OCC)cc1	/	1.1
98	Cc1cc(Nc2ccccc2F)n2nc(-c3ccccc3C)nc2n1	-0.03	-0.81
99	Fc1cccc(CN2CCC(N3CCN(c4ccccc4)CC3)CC2)c1	/	0.71
100	O=c1c2c(nc3nc(Cc4ccccc4)[nH]n13)CCC2	1.4	-0.81
101	CN1CCOc2ccc(S(=O)(=O)Nc3cccnc3)cc21	-0.47	/
102	O=C(NCc1ccccc1)C(=O)Nc1cc(C(F)(F)F)cc(C(F)(F)F)c1	/	1.9
103	O=c1c2c(-c3ccc(Cl)cc3)csc2ncn1C1CCCC1	0.73	-0.44
104	Cc1nc(N2CCCC2)c2c(C(=O)Nc3cc(F)ccc3F)c(C)oc2n1	0.83	/
105	CC1(C)CC(=O)C2=C(C1)NC(=O)CC2c1ccc(C(C)(C)C)cc1 (stereo not drawn)	-5.3	-2.9
106	O=C(NC1CC1)c1ccc2cn[nH]c2c1	-0.79	/
107	NC(=O)COc1ccc(-c2noc(COc3ccc(Br)cc3)n2)cc1	-0.03	0.69
108	CCCN(CCC)c1nn2c(=O)c(C(=O)NC3CCCC3)cnc2s1	0.97	/

(further entries)
entry	structure	HIV TAR-Tat	CDC25B CDK2 inh
109	CCCC(C(=O)NCc1ccco1)N1Cc2ccccc2C1=O (stereo not drawn)	-0.03	/
110	Fc1ccc(-c2noc3ncnc(NCC4CCN(Cc5ccc(Cl)cc5)CC4)c23)cc1	0.62	/
111	Cc1noc2ncn(CC(=O)NC3CCCc4ccccc43)c(=O)c12 (stereo not drawn)	1.3	/
112	O=C(NC1CCCCCC1)c1ccc2c(=O)n3c(nc2c1)CCCCC3	/	-0.94
113	Cc1ccc2cc3c(N)nn(C(=O)c4cccc(F)c4)c3nc2c1	/	-0.97
114	CCC(=O)N1CCc2cc(S(=O)(=O)NC(C(=O)NC3CCCCC3)C(C)C)ccc21 (stereo not drawn)	/	-1.6
115	O=C(CSc1c2c(nc3ccc(Cl)cc13)CCCC2)NCCCN1CCCC1=O	/	-9.2
116	CCc1c(O)nc(SCC(=O)N2CCc3ccccc32)n(-c2ccccc2)c1=O	1	-0.42
117	COCc1cc(C)nc2sc3c(=O)n(-c4ccccc4C(=O)OC)nnc3c12	-0.03	-1.5
118	CCCNc1nc(Nc2ccc(F)cc2)c2cnn(C)c2n1	0.65	/
119	Cc1ccc(CNS(=O)(=O)c2ccc3c(c2)C(C)(C)C(=O)N3)cc1	-0.5	/
120	CCc1cc2c(Nc3ccc4c(c3)OCO4)ncnc2s1	2	/
121	COc1cc(C)nc(OCCNS(=O)(=O)c2cc(C)ccc2C)n1	-1.1	-0.4

Source: PubChem (Center for Chemical Genomics, University of Michigan)

Hits appear at their usual frequency. About 0.89% of those tested had a hit in this group.
